# Rce1 inh – inhibitors of yeast Ras-converting enzyme; yeast membranes, quenched prenylated peptide cleavage fluorescence; calls only; 290,000 tested, 0.27% active; AID 2563;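 active = fall in fluorescence gain of 50% or more versus controls, with final raw signal at or below 3038400; inconclusive = same 50% fall but final raw signal above 3038400; inactive = fall in fluorescence gain under 50%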;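 also: plate controls were neutral control wells for no effect and wells lacking membranes for full effect; tested at 10 µM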
# Target sequence (Q03530 whole entry, looked up): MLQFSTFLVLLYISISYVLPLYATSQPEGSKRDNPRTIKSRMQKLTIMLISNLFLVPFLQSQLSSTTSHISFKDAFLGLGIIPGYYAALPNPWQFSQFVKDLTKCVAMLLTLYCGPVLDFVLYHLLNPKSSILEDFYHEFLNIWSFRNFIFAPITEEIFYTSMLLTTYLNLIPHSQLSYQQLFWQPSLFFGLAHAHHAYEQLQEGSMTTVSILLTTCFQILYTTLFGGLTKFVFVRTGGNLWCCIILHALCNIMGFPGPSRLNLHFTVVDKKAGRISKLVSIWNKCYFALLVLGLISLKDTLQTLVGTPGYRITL
# MT1-MMP act inh – inhibitors of human MT1-MMP activation; HT1080 RFP-PRO-GFP cells, GFP/RFP ratio fluorescence, overnight; percent of plate control window, DMSO zero; 360,000 tested, 0.061% active; AID 651647; GFP/RFP ratio change, % at 20 µM; P50281;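 active = GFP/RFP ratio change of at least 30% with cell ATP level not reduced by more than half and red fluorescence within 50% of control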; also: strong numbers were not always called active
#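 Assay system: HT1080 RFP-PRO-GFP cells. Benchmarks: DMSO vehicle wells and RFP-L50D-GFP reporter cell wells. Times: overnight cell settling, then overnight compound exposure, 37 °C, 5% CO2. Compound: 20 µM single dose, 1% DMSO. Read-out basis: GFP/RFP fluorescence ratio.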
# Yeast UUG start – yeast start codon fidelity modulation; S. cerevisiae UUG-firefly luciferase reporter, luminescence/redox ratio; activity score, % at 18.7 µM; 350,000 tested, 0.13% active;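 active = replicate mean at a twofold rise or more, about +100% in these data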;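 also: firefly luciferase made from a UUG start codon reports start codon fidelity; reporter light over untreated wells divided by growth signal over untreated wells; some hits fall short of that in this replicate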
# eIF4H FP inh – inhibitors of RNA binding by human eIF4H; eIF4H fluorescence polarization binding assay; inhibition, % at 35 µM; 290,000 tested, 0.94% active;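 active = 50% or more with normal probe brightness, or confirmed in later tests; inconclusive = above 50% with abnormal brightness, or retests that disagree; inactive = below 50% or failed in later tests; about a fifth of its hits are not listed in these tables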;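 also: calls also rest on retests at 20 µM and on dose response follow-up; 0% = protein and probe with vehicle and 100% = probe without protein; strong numbers were not always called active; many hits fall short of the cut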
# PABP polyA inh – PABP-poly(A) binding inhibition; inhibition, % at 35 µM; 290,000 tested, 1% active; AID 2014; PABP-poly(A) RNA binding, fluorescence polarization; P11940;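 active = 50% or more with normal probe brightness, or confirmed in later tests; inconclusive = above 50% with abnormal brightness, or retests that disagree; inactive = below 50% or failed in later tests; about a fifth of its hits are not listed in these tables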;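 also: calls also rest on retests at 20 µM and on dose response follow-up; controls were probe without protein and protein plus probe with vehicle; some compounds called inactive have numbers as strong as hits; many hits fall short of the cut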
# Target sequence (P11940 whole entry, looked up): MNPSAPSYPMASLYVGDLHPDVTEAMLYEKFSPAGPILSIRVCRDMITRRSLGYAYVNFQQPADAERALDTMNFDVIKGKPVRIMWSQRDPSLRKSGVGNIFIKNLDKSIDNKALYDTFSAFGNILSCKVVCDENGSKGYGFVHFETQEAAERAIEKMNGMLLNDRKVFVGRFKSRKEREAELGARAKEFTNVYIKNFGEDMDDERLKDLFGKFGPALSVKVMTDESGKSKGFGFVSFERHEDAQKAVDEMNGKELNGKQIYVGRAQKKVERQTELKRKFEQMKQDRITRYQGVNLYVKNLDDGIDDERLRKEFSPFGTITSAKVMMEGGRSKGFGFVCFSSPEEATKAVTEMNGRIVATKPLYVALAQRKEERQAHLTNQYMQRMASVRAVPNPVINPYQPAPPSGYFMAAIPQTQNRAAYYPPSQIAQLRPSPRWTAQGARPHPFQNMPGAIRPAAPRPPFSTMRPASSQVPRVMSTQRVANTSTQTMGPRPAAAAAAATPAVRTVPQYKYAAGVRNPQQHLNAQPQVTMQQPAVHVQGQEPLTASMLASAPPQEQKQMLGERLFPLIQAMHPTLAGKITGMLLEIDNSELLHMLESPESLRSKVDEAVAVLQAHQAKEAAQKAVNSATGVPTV
# Env fusion inh – HIV envelope-mediated fusion inhibition. HeLa-JRFL Env/CEM21 cell fusion, luciferase. inhibition, % at 12.3 µM. 360,000 tested, 1.1% active;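 active = mean replicate inhibition score of at least 50 and every replicate individually at or above 50; inconclusive = only one of the two criteria met; inactive = mean below 50 and not all replicates reaching 50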;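 also: 0% = plate neutral controls and 100% = maraviroc near 300 nM; one replicate is shown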
# CSC inhib – cancer stem cell inhibition; 300,000 tested, 1.1% active; cancer stem cell-like cells viability, luminescence; inhibition, % at 7.5 µM;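 active = mean at 75% or more and at least half the replicates too; inconclusive = mean and replicates disagree; tested in HMLE shEcad cells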;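 also: 0% = median of negative and 100% = median of positive control wells; the first replicate is given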
# MT1-MMP act inh RFP – also measured in MT1-MMP act inh; calls as there; RFP signal change, %; measured here: RFP expression control read;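 0 = vehicle wells; hits needed this value within 50% of zero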
# * = called active by the depositor; i = inactive; ? = inconclusive; / = no result given; & = joins results of further samples; [ ] = dose if it differs, or a comment.
mol,Env fusion inh,CSC inhib,MT1-MMP act inh RFP,PABP polyA inh,eIF4H FP inh,MT1-MMP act inh,Rce1 inh,Yeast UUG start
CCCc1nc2ccccc2c(C(=O)OCC(=O)NCc2ccc3c(c2)OCO3)c1CC,-22,10,-8,-2,-8,-2,/,/
Cc1nnc(C)n1/N=C/c1cc(Br)ccc1O,/,-3,7,9,2,7,i,-12
CSc1ccc(C(O)c2ncc(-c3ccccc3Cl)[nH]2)cc1 (centres undefined),-7,/,-1,/,/,-5,/,-17
CCn1c(SC)nc2c(c1=O)SC(C)C2 (centres undefined),/,-8,1,-3,-1,6,i,/
COc1cnc(-c2ccccc2)nc1Oc1cccc(C)c1C,/,-9,-3,-6,-7,-3,i,0
O=C(c1ccc(-c2cccc(C(F)(F)F)c2)o1)N1CCCCCCC1,6,57,-1,/,/,-1,i,/
Cc1cccn2c(=O)c3cc(C(=O)NC4CCCCC4)c(=N)n(Cc4ccc(F)cc4)c3nc12,13,-8,-15,15,-7,-9,i,-7
CN(CC(=O)Nc1sccc1C#N)Cc1ccccc1,12,-12,3,0,48,-4,i,-12
CC1(C)CC(=O)C2=C(C1)Nc1[nH]c(=S)[nH]c(=O)c1C2c1ccccc1 (centres undefined),/,-6,-3,15,2,5,i,-6
CCOc1cc(-c2c(C)c(CC)nc(N)c2C#N)ccc1O,/,9,2,4,-12,7,i,6
COC(=O)[C@H]1[C@H]2C[C@@H]3c4[nH]c5cc(OC)ccc5c4CCN3C[C@H]2C[C@@H](OC(=O)c2ccc(N)cc2)[C@@H]1OC,-36,-5,1,-7,43,-33,i,1
CCCCn1c(SCC(=O)NCCc2ccc(OC)c(OC)c2)nc2c1c(=O)n(C)c(=O)n2C,114*,2,1,2,-2,-6,i,0
CCOc1ccc(S(=O)(=O)N2CCN(C3CC(=O)N(c4cccc(C(C)=O)c4)C3=O)CC2)cc1 (centres undefined),12,/,2,/,/,4,/,-5
C/C(Cl)=C\Cn1c(N2CCCCCC2)nc2c1c(=O)n(C)c(=O)n2C,/,10,-3,0,-2,0,/,40
CCOc1ccc(CN2CCN(Cc3[nH]c4ccc(OC)cc4c3C)CC2CCO)cc1 (centres undefined),10,-9,2,1,-5,4,i,/
CCOc1cc(CNc2ccc(N(C)C)cc2)cc(Br)c1OCC(=O)NC(C)(C)C,/,-1,-1,18,0,-1,i,-15
C=CCn1c(CCNC(=O)c2cccs2)nnc1SCC(=O)Nc1cccc(C(C)=O)c1,/,3,2,2,-15,-1,i,-19
Cc1cc(O)c(CN2CCN(S(=O)(=O)c3cccs3)CC2)cc1C(C)C,12,12,-11,/,/,-5,/,0
Cc1ccccc1CSc1nnc(-c2ccncc2)n1C,9,-5,0,2,0,-3,i,/
O=C(CSc1n[nH]c(=O)[nH]c1=O)c1ccccc1,/,-11,6,20,6,2,i,-10
COc1ccc(C(=O)Nc2ccc(OC)c(OC)c2)cc1,-93,-12,2,6,6,3,i,-4
Cc1cccc(C(=O)Nc2cccc(C(=O)NC3CCCC3)c2)c1,-1,-7,-5,7,0,1,i,-14
CCOC(=O)C1C(c2ccc(O)c(O)c2)NC(=S)NC1(O)C(F)(F)F (centres undefined),-6,1,5,-5,-10,2,i,-2
CCOC(=O)c1nc(NCc2cccnc2)c2ccccc2n1,-12,6,7,-2,0,5,i,-11
COCCOC(=O)c1c(NC(=O)CN2CCCc3ccccc32)sc(C(N)=O)c1C,12,-5,-2,7,1,-3,i,/
Cc1cccc(NC(=O)C2CCN(C(=O)N3CCOc4ccccc43)CC2)c1C,-20,-5,-4,3,3,3,i,7
CC(C)NC(=O)C(=O)NCC(c1ccc2c(c1)OCO2)N1CCOCC1 (centres undefined),-9,-1,5,2,-18,4,i,-12
Cc1cccc(N2CCN(C(=S)Nc3ccc4nc5n(c(=O)c4c3)CCCCC5)CC2)c1C,11,47,/,10,9,/,i,/
O=C1CC(c2ccccc2)n2nc(N3C(=O)CCC3=O)nc2N1 (centres undefined),/,13,-4,-3,10,-7,i,-12
Cn1nc(C(=O)N2CCN(c3cccc(Cl)c3)CC2)c2c1-c1ccccc1S(=O)(=O)C2,2,-9,-1,7,-4,-7,i,-17
O=C(CCc1c[nH]c2ccccc12)N1CCN(S(=O)(=O)c2ccc([N+](=O)[O-])cc2)CC1,8,/,3,/,/,1,/,-4
CCCCNC(=S)N/N=C1\C(=O)c2cccc3cccc1c23,-7,-2,5,31,33,9,i,-25
CN(C)c1nc(NC(C)(C)C)nc(SCC(=O)Nc2ccccc2)n1,14,-3,-8,-1,45,1,i,/
Cc1nc(Nc2cccc(Cl)c2)c2oc3ccccc3c2n1,16,35,-6,-3,-2,-6,i,-9
Cc1c(NC2(C#N)CCCCC2)c(=O)n(-c2ccccc2)n1C,3,-17,-4,1,-6,0,i,/
Clc1ccc(-c2cc(COc3ccccc3)on2)cc1,-47,15,4,4,-10,3,i,-14
Cc1ccc(NNC2CC(=O)N(c3cccc(Cl)c3)C2=O)cc1 (centres undefined),1,/,-3,-9,1,-5,/,/
Cn1c(=O)nc2n(Cc3ccccc3)c3cccc(Cl)c3cc-2c1=O,-16,11,1,1,10,1,i,-5
COc1ccccc1N(CC(=O)NC1CCCC1)C(=O)CCCC(=O)Nc1ccccn1,-17,/,-3,3,-16,-2,i,/
CCO/C=C1\N=C(c2ccc(F)cc2)OC1=O,12,2,2,-13,16,-1,i,-10
O=C(c1c[nH]c(C(=O)C(Cl)(Cl)Cl)c1)c1ccc(F)cc1F,2,10,0,3,-3,-3,i,/
O=C1CCCC/C1=C/Nc1ccc2c(c1)OCO2,-64,-7,6,1,5,-2,i,-19
CCn1c(SCC(=O)Nc2ccc(Br)cn2)nnc1C1CC1,-21,-3,-3,22,17,2,i,-2
CC(C)NC(=O)Nc1cccc2c1O[C@H](CN(C)S(=O)(=O)c1ccc(F)cc1)[C@@H](C)CN([C@H](C)CO)C2=O,-11[16.7 µM],/,4,/,/,2,/,1&-5
NC(=O)CSc1oc(-c2ccco2)nc1S(=O)(=O)c1ccc(Cl)cc1,/,-17,0,3,-1,-5,i,-19
O=C(O)C1CC(O)CN1C(=O)c1ccco1 (centres undefined),-23,/,-1,-5,-12,-2,i,-13
CCOc1ccc(NC(=S)N(CC)Cc2ccccc2)cc1,/,-15,/,-2,-1,/,i,/
Cc1cc(C)c(C#N)c(SCc2ccc(C(=O)O)cc2)n1,-39,-5,2,17,0,-2,/,-12

# Pulled by compound from the list above:
mol,Env fusion inh,CSC inhib,MT1-MMP act inh RFP,PABP polyA inh,eIF4H FP inh,MT1-MMP act inh,Rce1 inh,Yeast UUG start
O=C(O)C1CC(O)CN1C(=O)c1ccco1 (centres undefined),-23,/,-1,-5,-12,-2,i,-13
Cn1c(=O)nc2n(Cc3ccccc3)c3cccc(Cl)c3cc-2c1=O,-16,11,1,1,10,1,i,-5

# The listing picks up, starting 2 compounds before the break.
mol,Env fusion inh,CSC inhib,MT1-MMP act inh RFP,PABP polyA inh,eIF4H FP inh,MT1-MMP act inh,Rce1 inh,Yeast UUG start
CCOc1ccc(NC(=S)N(CC)Cc2ccccc2)cc1,/,-15,/,-2,-1,/,i,/
Cc1cc(C)c(C#N)c(SCc2ccc(C(=O)O)cc2)n1,-39,-5,2,17,0,-2,/,-12
O=S(=O)(Nc1cccc(Oc2cnccn2)c1)c1ccc(F)cc1,2,0,-2,1,2,-1,i,-11
Cc1cccc(N2CCN(C(=O)c3c(C)nn(Cc4ccccc4Cl)c3C)CC2)c1C,/,3,-20,3,10,-6,i,/
Cc1ccc(NC(=O)Nc2cc(S(C)(=O)=O)ccc2Cl)cc1,4,-11,0,8,-10,-1,i,-20
Sc1oc(-c2ccccc2)cc1C=Nc1ccccc1,-86,0,1,25,-1,-9,i,-19
CS(=O)(=O)Cc1ccc(C(=O)NC2CCCc3ccccc32)cc1 (centres undefined),-2,/,0,-14,-5,-4,i,-4
CCCCC(=O)N1CC(=O)Nc2ccc(F)cc2C1c1ccccc1 (centres undefined),3,-9,-6,-8,0,-9,i,-9
COc1ccccc1-c1ccc2c(c1)C(C)(Cc1ccc(OC(F)(F)F)cc1)C(=O)N2 (centres undefined),?,/,-10,/,/,-6,/,-10
Cc1c(NC(=O)CN2C(=O)NC(CCc3ccccc3)C2=O)c(=O)n(-c2ccccc2)n1C (centres undefined),-2,1,1,-5,0,-1,i,-23
CCCCCC(=O)c1ccc(O)cc1O,6,-9,1,1,-2,2,i,/
CC(C)CC(N)c1csc(NC(=O)Nc2ccccc2C(C)(C)C)n1 (centres undefined),-17,/,-3,/,/,-6,/,0
CCCCN(C(=O)c1ccc(N2CCCC2=O)cc1)c1c(N)n(Cc2ccccc2)c(=O)[nH]c1=O,19,-4,1,/,/,8,/,-16
Fc1ccc(C2CC(c3cccs3)=NN2c2ccccc2)cc1 (centres undefined),26,/,-5,17,-12,-4,i,/
CCc1ccc2c(CSc3nnnn3C)cc(=O)oc2c1,14,-17,-10,5,-6,-5,i,1
O=C(COC(=O)Cc1ccccc1F)NNC(=O)c1ccc([N+](=O)[O-])cc1,-12,-9,3,/,/,4,i,-16
O=C1CCC(C(=O)N2CCCCO2)CN1CCc1ccc(Cl)cc1 (centres undefined),-19,-4,-1,-6,4,0,i,-3
Fc1ccccc1CSc1nnc(-c2cccnc2)o1,-32,3,3,9,-9,-2,i,/
Cc1cccnc1NC(=O)C12CCC(C)(C(=O)O1)C2(C)C (centres undefined),14,-4,7,-4,-7,4,i,/
CCN(CC)C(=O)Cn1cc(C(=O)C(=O)N2CCN(C)CC2)c2ccccc21,5,-4,0,-1,-5,-3,i,-8
COc1ccccc1C(=O)NCCC(=O)NC(C)c1ccc(-n2ccnc2)cc1 (centres undefined),11,6,-3,/,/,4,i,/
CCSc1ncc(Cl)c(C(=O)Nc2ccc(S(=O)(=O)Nc3ncccn3)cc2)n1,10,-16,7,3,-7,7,i,-8
O=C(COC(=O)c1cccs1)NC12CC3CC(CC(C3)C1)C2,-1,-12,2,7,8,1,i,/
COc1cc(CCC(=O)Nc2cc(C)cc(C)c2)cc(OC)c1OC,0,-9,-1,5,-9,-1,i,/
COc1cc2cc(C(=O)NCCc3ccccc3)[nH]c2cc1OC,20,3,0,-3,-9,3,i,-9
Brc1ccc2nc(-c3ccccc3)c(Cc3ccsc3)n2c1,-109,/,2,/,/,-3,/,9
COc1ccc2oc(C(=O)OCC(=O)c3ccc4c(c3)OCCO4)c(C)c2c1,13,-11,-5,1,10,3,i,668*
NS(=O)(=O)c1ccc(NC(=O)Cn2ncc3c2-c2ccccc2OC3)cc1,-10,3,5,-1,-5,10,i,11
COc1ccc(-c2nn(-c3ccccc3)cc2/C=N/NC(N)=S)cc1OC,/,68,-13,6,-8,4,i,/
CC1C(c2ccccc2)=[N+]([O-])C2(CCCCC2)N1O (centres undefined),/,-12,-3,-3,-3,-5,i,-13
COc1ccc(N(CC(=O)Nc2cc(Cl)ccc2C)S(=O)(=O)c2c(C)noc2C)cc1,25,-12,-12,-4,-9,-12,i,-9
O=C(CN(CCc1ccccc1)S(=O)(=O)c1ccc(Cl)cc1)N/N=C/c1ccccc1C(=O)O,18,24,-1,0,2,-4,i,/

# Compound activity: PubChem BioAssay, several laboratories
